A1 inh: inhibitors of the anti-apoptotic protein A1, read as caspase activation. 0.066% of 330,000 active. MEF A1-2A-BIM cells, Caspase-Glo 3/7 luminescence, 3 h; percent of clofoctol response, vehicle zero. caspase activation, % (concentration not given with the values);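 active = over half of replicate activation scores above 10%, or exactly half above 10 with the replicate mean above 10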;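 note: wells of about 30 µL received 50 nL stock; many hits fall short of the cut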
LANA-H2B inh: blocks KSHV LANA binding to histone H2A/H2B | Q9QR71 | cell-free LANA-H2A/H2B peptide, fluorescence polarization | inhibition, % (concentration not given with the values) | 0.6% of 320,000 active | AID 2629; in the data active = inhibition mostly above about 10%, no sharp cut-off; inactive = mostly below about 6.7%;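 note: stock transfer was 7.5 nL into about 10 µL; 0% = median of vehicle wells and 100% = median of positive control wells; one replicate is shown; the record names a cut of 25% in any replicate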
Beta cell apopt: blocks beta cell apoptosis; INS-1E cytokine-induced death, ATP luminescence, 48 h; percent of positive-control rescue, neutral wells zero; protection from apoptosis, % (test concentration not listed); 0.8% of 300,000 active; AID 435005;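 active = all replicates at 75% or more, or half of them and the mean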;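 note: 0% = cytokine-treated negative control wells and 100% = positive control rescue; higher means more ATP so stronger rescue from cytokine killing; wells of about 40 µL received 100 nL stock; the first replicate is given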
rRNA inh HTS: selective bacterial rRNA inhibition in E. coli; E. coli WT GFP vs humanized-ribosome RFP mutants, fluorescence, 24 h; active compounds read low; DMSO median 0, no signal -100; GFP signal change (wild-type ribosome), % (test concentration not listed); 1.6% of 350,000 active;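 active = significant combined selectivity score with lowered wild-type GFP, culture density cut under 30%, mutant RFP and density less affected; inactive = any of these conditions unmet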; note: one replicate is shown; some compounds called inactive have numbers as strong as hits
ALR inh: human ALR oxidase inhibition via reduced H2O2; P55789; purified ALR, DTT oxidation, H2O2 HRP-luminol luminescence; inhibition, % (concentration not given with the values); 3.8% of 290,000 active;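 active = mean and each replicate at 75% or more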;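 note: stock transfer was 7.5 nL into about 7.5 µL; 0% = neutral wells and 100% = wells with inactivated enzyme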
Target sequence (P55789 whole entry, looked up): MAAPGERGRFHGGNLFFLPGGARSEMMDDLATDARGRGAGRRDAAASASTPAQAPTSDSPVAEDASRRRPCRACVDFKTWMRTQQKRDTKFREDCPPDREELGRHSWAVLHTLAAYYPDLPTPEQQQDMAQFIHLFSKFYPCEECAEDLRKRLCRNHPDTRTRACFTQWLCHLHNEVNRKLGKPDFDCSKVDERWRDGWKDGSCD
B2AR ag: agonists of human beta-2 adrenergic receptor inducing internalization | AID 504454 | 0.43% of 340,000 active | P07550 | Am2.2-beta2AR cells, FAP receptor internalization, flow cytometry; reference of the scale not given here | response, % (no concentration beside the values);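 active = response above a set limit, near 3 SD of response in nonfluorescent compounds, cut at about 42% in these data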;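 note: stock transfer was 100 nL into about 11 µL; a reference agonist was the positive control; negative values mostly stem from fluorescent compounds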
Target sequence (P07550 whole entry, looked up): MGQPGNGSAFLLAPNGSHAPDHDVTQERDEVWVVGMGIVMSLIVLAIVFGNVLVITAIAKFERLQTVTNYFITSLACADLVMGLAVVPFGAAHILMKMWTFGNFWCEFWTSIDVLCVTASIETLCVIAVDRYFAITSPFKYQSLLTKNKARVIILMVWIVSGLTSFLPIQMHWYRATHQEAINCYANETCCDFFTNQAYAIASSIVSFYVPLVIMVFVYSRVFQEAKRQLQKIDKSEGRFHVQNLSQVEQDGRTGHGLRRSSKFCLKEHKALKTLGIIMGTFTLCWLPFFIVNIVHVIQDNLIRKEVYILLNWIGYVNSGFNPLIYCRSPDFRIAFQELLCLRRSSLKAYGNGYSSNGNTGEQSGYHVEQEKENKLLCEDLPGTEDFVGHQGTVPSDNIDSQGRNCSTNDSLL
Calb FLC: affects C. albicans growth with fluconazole. C. albicans CaCi-2 (fluconazole-resistant clinical isolate) + fluconazole, Alamar Blue growth, 48 h. growth inhibition, % (concentration not given with the values). 0.57% of 300,000 active. AID 1979;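 active = most replicates above 75%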;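 note: all wells also contain fluconazole at 8 µg/ml as a sub-toxic cotreatment; 0% = median of DMSO wells and 100% = median of geldanamycin control wells; wells of about 8 µL received 7.5 nL stock; the first replicate is given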
T cruzi inh: blocks replication of Trypanosoma cruzi. T. cruzi beta-gal in NIH3T3, luminescence, 90 h. inhibition, % (test concentration not listed). 1.4% of 300,000 active;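 active = mean inhibition across valid replicates above about 55%, limit read from the data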;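 note: signal also drops with host cell toxicity which is not excluded here; 0% = plate median of DMSO wells and 100% = zero luminescence signal; higher percent means less beta-gal luminescence so fewer parasites; stock transfer was 50 nL into about 50 µL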
rRNA inh HTS OD600: also measured in rRNA inh HTS; calls as there; OD600 change, %; measured here: OD600 growth;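 optical density of the mix in the first replicate; 0 = DMSO median and -100 = no signal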
rRNA inh HTS RFP: recorded beside rRNA inh HTS, whose call it bears; RFP signal change, %; measured here: RFP humanized mutant strains;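 first replicate; 0 = DMSO median and -100 = no signal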
* hit, by the source's call; / = no result given.

SMILES	A1 inh	LANA-H2B inh	Beta cell apopt	rRNA inh HTS	rRNA inh HTS OD600	rRNA inh HTS RFP	ALR inh	B2AR ag	Calb FLC	T cruzi inh
COc1cccc(C(=O)Nc2ccc(C(=O)NCC(C)C)cc2)c1	-0.9	-3.1	-2.8	5.3	5.2	-0.3	-2.7	4.9	-1.7	-5.4
Cc1cc(C)nc(Sc2ccc(/C=C(\C#N)C(=O)Nc3ccccc3)o2)n1	0.2	-0.6	0.3	/	/	/	-1.2	0.3	-3.9	-12.2
CC(C)c1ccc(NC(=O)c2ccccc2NC(=O)C2CCCCC2C(=O)O)cc1 (centres undefined)	-0.6	0.0	/	1.5	8.2	-0.3	2.5	1.0	31.0	-2.9
COc1ccc2c(CC(=O)OCC(=O)Nc3cc(C)c(C)cc3[N+](=O)[O-])coc2c1	0.5	0.8	-4.4	3.6	-6.0	-2.9	/	0.5	-8.3	-19.5
Cn1cnnc1SCC(=O)Nc1ccc2nc(SCc3cccc4ccccc34)sc2c1	0.1	-6.6	7.1	/	/	/	-16.5	6.6	0.2	30.0
CC1(C)CC(=O)C=C(OC(=O)c2ccc(Cl)cc2)C1	-0.3	2.5	3.6	/	/	/	97.8*	12.5	32.4	-7.7
CC[C@H](C)[C@@H](C(=O)NCCCCCCCCCCC(=O)N1CCN(C(=O)OC(C)(C)C)CC1)n1cc(CCCCN=C(NC(=O)OC(C)(C)C)NC(=O)OC(C)(C)C)nn1	-0.7	2.3	112.2*	/	/	/	-73.7	/	/	/
CCOC(=O)c1oc2nc3c(cc2c1N)COC(C)(C)C3	0.5	-1.1	0.4	/	/	/	-4.8	4.2	6.6	3.1
CCOC(=O)c1c(NC(NC(=O)C(C)C)C(Cl)(Cl)Cl)sc2c1CCC2 (centres undefined)	0.0	1.4	5.3	/	/	/	2.0	33.4	-0.9	15.8
CC(NC(=O)CSc1nc2ccccc2c(=O)[nH]1)c1ccccc1 (centres undefined)	0.7	3.9	-17.6	/	/	/	-0.4	1.5	7.7	-5.0
COC(=O)c1cc(NC2c3ccccc3C(=O)N2CCN2CCOCC2)cc(C(=O)OC)c1 (centres undefined)	-0.1	4.1	-2.3	1.7	10.2	-0.2	1.7	0.6	5.2	-4.3
COc1cc(OC)cc(-n2nnnc2SCC(=O)N2CCCC2)c1	0.2	-0.2	-11.6	/	/	/	1.1	-11.3	-0.5	-17.1
Cc1cccc(N2CCN(C(=O)c3cn(C)c(=O)c4c3c3ccccc3n4C)CC2)c1C	-0.5	4.1	-15.5	4.1	-13.2	17.2	87.9*	9.7	56.7*	51.3
O=C(c1cc(-c2ccccc2)nc2ccccc12)N1CCN(c2ccccc2O)CC1	-0.5	-2.5	1.3	-1.6	-12.6	4.7	4.2	5.0	-0.1	17.7
COc1ccc(N2CCN(C(=O)c3cc4c(s3)-c3ccccc3S(=O)(=O)C4)CC2)cc1	1.1	-1.0	0.4	7.1	7.0	-0.6	3.3	20.9	-9.0	-6.7
Cc1cc(-c2nnc(SCC(=O)Nc3ccccc3Cl)n2C)no1	0.1	5.5	-7.8	13.9	9.4	1.5	-11.5	5.2	-8.5	1.1
CCC(C)NC(=O)CSc1n[nH]c(-c2cc(Cl)ccc2OC)n1 (centres undefined)	-0.7	-4.5	-1.2	17.3	15.1	0.8	-9.0	-4.0	4.5	3.2
O=C(COc1ccc(Cl)cc1)Nc1nnc(C2=COCCO2)o1	-0.4	-0.5	-2.9	-2.5	-10.6	-3.9	2.1	-0.3	6.4	-8.0
CCc1nc2cc([N+](=O)[O-])c([N+](=O)[O-])cc2[nH]1	1.8	-4.0	1.1	10.7	25.0	12.4	-10.1	-4.6	10.0	17.9
COc1ccc(C2NC(=S)NC3=C2CCc2cc(OC)ccc23)cc1 (centres undefined)	0.3	-3.8	6.7	/	/	/	-15.5	-12.8	23.1	2.9

Looked up above:
Reading of Cc1cc(-c2nnc(SCC(=O)Nc3ccccc3Cl)n2C)no1 in rRNA inh HTS: 13.9
Reading of CCC(C)NC(=O)CSc1n[nH]c(-c2cc(Cl)ccc2OC)n1 (centres undefined) in Beta cell apopt: -1.2
Reading of COc1ccc(C2NC(=S)NC3=C2CCc2cc(OC)ccc23)cc1 (centres undefined) in T cruzi inh: 2.9

The list goes on:
SMILES	A1 inh	LANA-H2B inh	Beta cell apopt	rRNA inh HTS	rRNA inh HTS OD600	rRNA inh HTS RFP	ALR inh	B2AR ag	Calb FLC	T cruzi inh
CCCC(C)NS(=O)(=O)c1ccccc1 (centres undefined)	-0.2	6.4	3.5	/	/	/	-0.6	8.8	13.5	-7.9
C=CCSc1nnc(NC(=O)c2cccc(S(=O)(=O)N(C)c3ccccc3)c2)s1	0.9	-0.1	-1.5	/	/	/	0.8	-1.3	-13.1	-12.7
C/C(=N/n1cnnc1)c1cccnc1	0.1	4.9	-5.0	/	/	/	-6.9	12.5	0.0	-5.5
Cc1cccc(OCC(=O)Nc2ccccc2C(=O)N2CCOCC2)c1	0.1	8.1	0.9	/	/	/	-1.9	1.0	-0.4	13.0
O=C(N/N=C/c1c[nH]c2ccccc12)c1ccccc1	-1.1	2.0	-3.2	2.9	4.5	-1.0	16.1	1.1	2.8	1.0
COc1ccc(CCNC(=O)COC(=O)CCC(=O)c2ccc(F)cc2)cc1	0.7	0.8	2.2	-18.4	-7.1	-0.6	84.6*	-0.6	-0.4	-10.6
COc1cc2nc(SCc3ccc(Cl)cc3Cl)n(Cc3cccs3)c(=N)c2cc1OC	0.3	3.3	0.9	/	/	/	-9.6	-0.3	80.8*	77.0*
CCCCN(C(=O)c1cc(=O)[nH]c2ccccc12)c1c(N)n(CCCC)c(=O)[nH]c1=O	-0.1	-2.1	0.1	-0.5	5.4	-2.2	-2.0	5.7	-2.4	6.8
COc1ccc(Sc2nc(-c3ccccc3)ncc2C(=O)O)cc1	-0.2	4.0	-0.5	-7.6	-10.3	-4.4	30.7	6.2	60.3	-26.2
CCOC(=O)c1cc(=O)[nH]c2ccccc12	0.6	-1.0	-1.7	19.0	7.5	-0.2	-1.6	-1.4	-4.5	-10.2
COC(=O)c1c(C)noc1-c1ccc(Cl)cc1	-0.5	0.6	-1.8	1.1	3.8	-3.9	-4.8	2.8	-3.2	-11.4
O=C(Nc1ccc(F)cc1)NC1(C(=O)NCc2ccco2)CCCCC1	0.3	2.6	-14.9	/	/	/	-3.8	-12.7	-4.0	-18.2
Cc1ccc(C2(C(F)(F)F)NC(=O)N3C(=C2C#N)Nc2ccccc23)cc1 (centres undefined)	-0.6	-1.4	3.5	/	/	/	-4.9	0.3	4.8	4.1
O=[N+]([O-])c1ccc(-c2nnc(-c3ccccc3)c(NCCCO)n2)cc1	-0.5	2.6	9.8	/	/	/	/	-19.0	1.9	15.3
O=C(Nc1nc2ccc(SC(F)F)cc2s1)c1ccc2c(c1)S(=O)(=O)c1ccccc1C2=O	0.3	4.1	4.0	/	/	/	/	/	-0.2	-24.1
OCC[C@@H]1C[C@@H](O)[C@H](O)[C@]2(OCc3ccccc32)O1	-0.1	1.6	-1.4	2.5	10.8	-3.2	3.1	-0.5	-0.9	6.6
CCOC(=O)CC(=O)Nc1cc(Cl)ccc1O	0.4	/	-6.7	/	/	/	/	1.7	-1.4	-13.5
CCOC(=O)C1CCCN(Cc2sccc2C)C1 (centres undefined)	0.0	1.6	3.9	/	/	/	2.0	11.3	2.7	38.1
Cc1nn(Cc2ccccc2Cl)c2sc(C(=O)NCCCn3ccnc3)cc12	-0.6	-2.8	0.5	/	/	/	-6.9	-9.8	21.2	17.0
COc1ccc(CN2C3CCC2CC(NC(=O)c2cccc(F)c2)C3)cc1 (centres undefined)	0.0	-0.1	-1.6	10.6	15.6	0.4	-8.4	-5.1	-19.7	11.5
O=C(COC(=O)COc1ccccc1)NCc1ccc2c(c1)OCO2	-0.1	-8.9	-5.1	3.2	8.3	4.3	/	-0.9	/	/
Nc1nc(-c2ccccc2)[nH]c(=O)c1N=O	-1.5	-6.1	1.4	3.7	13.0	2.9	/	-2.2	-2.2	8.6
O=C(CCN1C(=O)/C(=C/c2cccs2)SC1=S)NNC(=O)c1cccc(O)c1	0.8	-35.3	7.3	5.5	3.4	30.5	-2.2	-1.9	-15.6	14.4
O=C(C1=C(O)C(=O)N(CCN2CCOCC2)C1c1cccnc1)c1cc2ccccc2o1 (centres undefined)	0.7	1.5	1.8	/	/	/	-9.7	-16.2	/	/
COc1ccc(-c2nc(CS(=O)(=O)CC(=O)NCCc3ccc(C)cc3)c(C)o2)cc1	0.4	-5.8	-11.3	2.1	7.7	0.4	-20.7	0.6	-0.1	5.0
O=C(C1CCOCC1)N1CCCC(N2CCN(c3cccc(Cl)c3)CC2)C1 (centres undefined)	-0.2	8.6	-1.6	9.0	-2.3	3.1	2.2	-3.2	-3.3	13.7
Fc1ccc(NC(=S)N2CCN(C/C=C/c3ccccc3)CC2)c(F)c1	0.9	-3.1	2.3	-21.6	-39.9	3.9	-1.7	-0.1	-4.9	19.2
COCc1[nH]nc2c1C1(CCC3(CC1)OCCO3)C(C#N)=C(N)O2	0.0	5.1	7.1	/	/	/	6.8	0.0	-7.8	-9.3
CCn1c(SCC(=O)O)nnc1-c1cc2c(C)nn(-c3ccccc3)c2s1	-0.1	18.7	-3.6	-11.6	-10.1	0.0	/	-10.0	0.9	-3.2
CCOC(=O)c1c(N)sc(C(=O)N2CCCC(C(N)=O)C2)c1C (centres undefined)	0.6	6.5	-4.9	/	/	/	-8.5	1.9	-5.1	-11.7

Part of the list above, field by field.
canonical_smiles: O=C(COC(=O)COc1ccccc1)NCc1ccc2c(c1)OCO2
  A1 inh: -0.1
  LANA-H2B inh: -8.9
  Beta cell apopt: -5.1
  rRNA inh HTS: 3.2
  rRNA inh HTS OD600: 8.3
  rRNA inh HTS RFP: 4.3
  ALR inh: /
  B2AR ag: -0.9
  Calb FLC: /
  T cruzi inh: /

canonical_smiles: Nc1nc(-c2ccccc2)[nH]c(=O)c1N=O
  A1 inh: -1.5
  LANA-H2B inh: -6.1
  Beta cell apopt: 1.4
  rRNA inh HTS: 3.7
  rRNA inh HTS OD600: 13.0
  rRNA inh HTS RFP: 2.9
  ALR inh: /
  B2AR ag: -2.2
  Calb FLC: -2.2
  T cruzi inh: 8.6

canonical_smiles: O=C(CCN1C(=O)/C(=C/c2cccs2)SC1=S)NNC(=O)c1cccc(O)c1
  A1 inh: 0.8
  LANA-H2B inh: -35.3
  Beta cell apopt: 7.3
  rRNA inh HTS: 5.5
  rRNA inh HTS OD600: 3.4
  rRNA inh HTS RFP: 30.5
  ALR inh: -2.2
  B2AR ag: -1.9
  Calb FLC: -15.6
  T cruzi inh: 14.4

Further entries follow.
SMILES	A1 inh	LANA-H2B inh	Beta cell apopt	rRNA inh HTS	rRNA inh HTS OD600	rRNA inh HTS RFP	ALR inh	B2AR ag	Calb FLC	T cruzi inh
Cc1c(N=CN2CCOCC2)c(=O)n(C)c(=O)n1C	0.7	-0.7	-6.5	/	/	/	1.5	0.4	-1.9	2.4
CCOC(=O)C1CCN(S(=O)(=O)c2cccc(-c3cn4ccccc4n3)c2)CC1	-0.2	-1.2	-5.1	/	/	/	98.8*	-5.1	-4.4	-5.4
O=c1[nH]nc(CNc2ccc(O)cc2)c2ccccc12	0.8	2.3	8.2	/	/	/	99.5*	-3.6	-4.6	-2.6
COc1ccc(C(C)=O)cc1COc1cccc2cccnc12	0.3	2.8	2.1	-22.4	-19.6	-3.3	-4.1	1.4	-2.7	5.0
COc1ccc(-n2cnc3cc([N+](=O)[O-])ccc32)cc1	/	/	/	-2.6	1.1	-3.3	/	-3.8	-12.9	-16.9

The list is partial, so the mix of outcomes need not match the whole.
